# High-throughput results as filed in PubChem BioAssay.
# Bead autofluor = compound fluorescence in toxin protease inhibitor counterscreen | compound autofluorescence counterscreen, microsphere flow cytometry; hits give high values | fluorescence intensity (no concentration beside the values) | 3.1% of 360,000 active | AID 624483;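 active = at least 3 SD above the mean of all compounds, about 16000 in these data; inconclusive = too few beads counted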;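 also: 100 nL of 1 mM stock went into each well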
# RN4220 kill = growth inhibition of S. aureus RN4220, primary screen, OD600; 16 h; inhibition, % (no concentration beside the values); 0.33% of 330,000 active;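 active = z-score of -3 or lower and OD600 up to 0.18 on both plates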;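 also: plate controls were untreated cells for no effect and reference antibiotic for full effect; stock transfer was 100 nL into about 80 µL; one replicate is shown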
# PrP 5UTR inh = inhibition of PrP 5' UTR reporter expression | cell-based PrP 5' UTR mRNA reporter, plate reader | 0.35% of 340,000 active | inhibition, % (concentration not given with the values);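 active = every replicate at 50% or more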;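 also: 0 = median of the neutral control wells; tested in H4 reporter cells; numbers are from one replicate; inactives centre near -14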
# Mtb hypoxia inh = PubChem AID 1159583; fluorescence inhibition, % (test concentration not listed); M. tuberculosis hypoxia-regulated fluorescent reporter, fluorescence; 0.1% of 300,000 active;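 active = 35 to 45% if threefold the growth effect, above 45% if 1.5-fold the growth effect; inactive = the rest, general growth blockers included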;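 also: wells of about 50 µL received 100 nL stock; 0% = vehicle wells and 100% = reference inhibitor wells; whole bacteria with a GFP reporter of the hypoxia response; strong numbers were not always called active; many hits fall short of the cut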
# Sa ugtP lethal = growth inhibition of ugtP-null S. aureus, primary screen, RN4220 ugtP deletion, OD600; growth inhibition, % (test concentration not listed); 0.54% of 330,000 active; 16 h; some inactives read as strong as hits;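 active = z-score under -3 and OD600 up to 0.15 on both plates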;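 also: plate controls were untreated wells for no effect and antibiotic for full effect; wells of about 80 µL received 100 nL stock; the first replicate is given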
# BJeLR viability = MLPCN primary cell-based screen for lethality selective to Ras in HRASV12 cells; BJeLR (HRASV12) viability, CellTiter-Glo ATP luminescence, 48 h; reference of the scale not given here; inhibition, % (no concentration beside the values); 0.17% of 300,000 active;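 active = replicate mean above 50%; inconclusive = above 50% but judged a plate artefact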;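 also: 50 nL library stock added to about 25 µL; numbers are from one replicate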
# Mtb hypoxia inh growth = further read-out of Mtb hypoxia inh, marked with its call; growth inhibition, %; measured here: M. tuberculosis growth (absorbance);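 0% = vehicle and 100% = reference antibiotic; read after six days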
# Starred values were filed as active, the others as inactive; ? = inconclusive; . = no result given. Not a hit list; any-hit rate near 4%.
SMILES,Bead autofluor,RN4220 kill,PrP 5UTR inh,Mtb hypoxia inh,Mtb hypoxia inh growth,Sa ugtP lethal,BJeLR viability
CC(NC(=S)NNS(=O)(=O)c1ccc(C(C)(C)C)cc1)c1ccccc1 (stereo unspecified),.,14,-4,-4,9,-11,-3
Cc1c(CCC(=O)O)c(=O)oc2cc3occ(-c4ccc(F)cc4)c3cc12,7161,22,2,5,2,76,-1
Cc1ccccc1OCC(O)CN1CCN(CCN2C(=O)c3cccc4cccc(c34)C2=O)CC1 (stereo unspecified),2487,4.1,-16,-4,6,-15,-2
COc1cc(C(=O)NCc2cn3cccc(C)c3n2)cc(OC)c1OC,5324,5.3,-22,2,2,7,-2
Cc1ccc(Oc2nn[nH]n2)cc1,11115,1.1,-22,8,8,6,-14
COc1cccc(C=NNc2ccc([N+](=O)[O-])cc2)c1O,.,-2.7,.,-8,7,-7,.
O=C(CSCc1ccc(Cl)c(Cl)c1)Nc1c[nH]c(=O)[nH]c1=O,2114,0.6,-15,7,2,11,2
CSc1cccc(NC(=O)c2cc(S(=O)(=O)N3CCCC3)cn2C)c1,5376,-14,-16,7,11,-8,0
COc1cccc(NC(=O)COC(=O)COc2ccccc2[N+](=O)[O-])c1,2398,1.8,-11,8,1,2,-2
CCOC(=O)c1cc(NC(=O)c2cnccn2)cc(C(=O)OCC)c1,11061,7.7,-2,10,0,1,-1

# Ordered by heavy-atom count (smallest number first): part of the list above
SMILES,Bead autofluor,RN4220 kill,PrP 5UTR inh,Mtb hypoxia inh,Mtb hypoxia inh growth,Sa ugtP lethal,BJeLR viability
CCOC(=O)c1cc(NC(=O)c2cnccn2)cc(C(=O)OCC)c1,11061,7.7,-2,10,0,1,-1
Cc1c(CCC(=O)O)c(=O)oc2cc3occ(-c4ccc(F)cc4)c3cc12,7161,22,2,5,2,76,-1
Cc1ccccc1OCC(O)CN1CCN(CCN2C(=O)c3cccc4cccc(c34)C2=O)CC1 (stereo unspecified),2487,4.1,-16,-4,6,-15,-2

# Later entries:
SMILES,Bead autofluor,RN4220 kill,PrP 5UTR inh,Mtb hypoxia inh,Mtb hypoxia inh growth,Sa ugtP lethal,BJeLR viability
O=C1NC2(CCCCC2)C(=O)N1N=Cc1ccccc1Br,.,9.9,.,-6,5,-4,.
N/C(=N\OC(=O)CCC1CCCC1)c1ccc(Br)cc1,5296,2.6,-13,9,2,-2,-16
O=C(Cc1ccccc1[N+](=O)[O-])N1CCN(Cc2ccc3c(c2)OCO3)CC1,3835,2.4,-25,9,9,3,7
O=C(c1ccccc1Oc1ccccc1)N1CCN(c2ccccc2)CC1,2042,6.3,-4,.,.,-1,1
O=C(Cc1ccc(S(=O)(=O)N2CCOCC2)s1)NCCOc1ccccc1F,5507,6.0,-18,7,2,7,5
Oc1oc(-c2ccccc2Br)nc1C=Nc1ccc(Br)cn1,2228,4.5,-27,5,13,-22,-11
CCOC(=O)c1c(CC(C)C)csc1N=CC1=C(O)CCCC1=O,.,5.7,.,3,7,-1,.
COC(=O)c1ccc(COc2ccc(-c3nnn(CC(=O)NC(C)(C)C)n3)cc2)cc1,2479,0.7,-11,-3,4,3,17
COc1ccc(NC(=O)CCS(=O)(=O)c2cc3c(cc2C)NC(=O)CO3)cc1,5474,-0.6,2,-3,0,1,-25
COC(=O)COc1ccc(-c2nccc(-c3ccc(Br)cc3)n2)cc1,3051,2.0,-10,4,8,12,-5

# Whole records, quoted from the list:
# Profile of `O=C(c1ccccc1Oc1ccccc1)N1CCN(c2ccccc2)CC1` : Bead autofluor: 2042; RN4220 kill: 6.3; PrP 5UTR inh: -4; Mtb hypoxia inh: .; Mtb hypoxia inh growth: .; Sa ugtP lethal: -1; BJeLR viability: 1
# Profile of `Oc1oc(-c2ccccc2Br)nc1C=Nc1ccc(Br)cn1` : Bead autofluor: 2228; RN4220 kill: 4.5; PrP 5UTR inh: -27; Mtb hypoxia inh: 5; Mtb hypoxia inh growth: 13; Sa ugtP lethal: -22; BJeLR viability: -11

# Other results:
SMILES,Bead autofluor,RN4220 kill,PrP 5UTR inh,Mtb hypoxia inh,Mtb hypoxia inh growth,Sa ugtP lethal,BJeLR viability
Cc1ccccc1NC(=O)N1CCN(S(=O)(=O)c2ccccc2)CC1,3389,-1.9,-20,-5,2,0,-8
COc1ccc(S(=O)(=O)N2CCN(c3cnccn3)CC2)cc1,2833,0.6,-15,7,2,0,.
CC1CCCCC12NC(=O)N(CC(=O)Nc1ccc3c(c1)OCCCO3)C2=O (stereo unspecified),4017,1.4,-29,19,11,-1,.
COc1ccccc1-c1nnc(SCC(=O)N2CC(C)CC(C)C2)o1 (stereo unspecified),4256,-0.9,-11,.,.,5,1
COc1ccc(Cc2nc3ccc(C(=O)N(C)C(C)c4ccon4)cc3o2)cc1 (stereo unspecified),5506,-0.9,-27,-5,-2,3,4
Cc1ccc(NC2OC(C(O)CO)C(O)C2O)cc1[N+](=O)[O-] (stereo unspecified),3192,5.3,7,5,6,3,-10
O=C(/C=C/c1ccco1)OCC(=O)N1CCCCC1,2790,3.9,-40,-2,5,-7,.
O=C(NN=C1CCCC1)c1ccc(O)cc1O,5324,3.6,-6,-7,-1,1,-8
CNC(=O)c1cc2c(cn1)[nH]c1ccccc12,5250,1.6,-60,1,4,4,-1
COc1ccc(C(=O)CN2C(=O)C(C)(C)Oc3ccc(C(=O)N4CCCCCC4)cc32)cc1,3425,2.5,-3,.,.,0,1
COc1ccc(/C=C/C(=O)NC(=S)Nc2ccc(S(N)(=O)=O)cc2)cc1,4588,4.0,1,-6,0,16,-9
O=C(N/N=C(\CC(=O)c1cccs1)C(F)(F)F)c1ccncc1,5157,.,4,.,.,.,14
O=C(Nc1ccnn1C1CCN(Cc2cccc(F)c2F)CC1)C1CCCC1,6265,0.8,-2,-2,0,6,8
Cc1cc(NC(=O)c2cccs2)n(-c2ccccc2)n1,15414,5.3,-22,7,7,1,-4
OCCNCc1cc(Br)ccc1OCc1ccccc1Cl,2407,5.4,-17,18,7,-7,8
COc1ccc(Cc2c(O)[nH]c(=O)[nH]c2=O)c(OC)c1,5138,2.1,-20,14,1,1,-6
O=C(COC(=O)c1cc(Cl)ccc1O)NCC1CCCO1 (stereo unspecified),5780,-0.9,-18,-5,1,-3,-4
COc1ccc(C(=O)NC(CO)c2nnc(SCc3ccc(Cl)c(Cl)c3)n2C)cc1 (stereo unspecified),9298,3.5,-11,7,0,15,-1
CS(=O)(=O)Nc1ccc2c(c1)ncn2CCc1ccccc1,2943,-2.0,-22,3,-3,0,-2
CSc1ncccc1C(=O)Nc1nccs1,3951,4.5,-13,14,9,-5,-8
COc1ccccc1C(OC(=O)c1ccco1)C(=O)NC(C)(C)C (stereo unspecified),4105,2.6,-3,14,3,6,-4
CCOC(=O)C1CCCN(CCC(=O)Nc2cc(C)cc(C)c2)C1 (stereo unspecified),3873,-0.4,-15,7,15,8,-1
CN(C)S(=O)(=O)c1ccc(Cl)c(C(=O)NNC(=O)Cc2nc3ccccc3n2C)c1,.,2.5,.,13,5,3,.
COc1ccc(N2CCN(CCCNC(=O)CN3CCN(Cc4ccccc4C)C3=O)CC2)cc1,2678,6.5,1,14,5,1,0
CC1CCCCC1NC(=O)CSc1nnc(COc2ccccc2Cl)o1 (stereo unspecified),9928,0.2,-6,0,3,1,0
Cc1oc(-c2ccccc2)nc1CS(=O)CC(=O)NC1CCCC1 (stereo unspecified),5852,-3.4,-11,-7,1,-6,-2
COc1ccc(C(=O)NC2CCSc3ccccc32)cc1 (stereo unspecified),.,4.5,-25,11,-3,10,-5
CC(=O)Nc1cccc(OCC(=O)NC(C)c2ccc3ccccc3c2)c1 (stereo unspecified),4037,7.8,-17,3,7,10,-11
COc1ccc(C2=NOC(Cn3nc(-c4ccccc4)cc3C(=O)NCc3cccc(C(F)(F)F)c3)C2)cc1 (stereo unspecified),4233,5.7,-13,10,5,-15,.
[O-]/C(=C(\C(=S)Nc1ccc(SC(F)F)cc1)[n+]1ccccc1)c1ccc(Cl)cc1Cl,2354,-4.9,-31,5,5,-8,10
CN(C)c1ccc(CNC(=O)CCS(=O)(=O)c2ccc3c(c2)oc(=O)n3C)cc1,4837,-0.5,-9,7,8,4,2
Cc1ccc(/C=N/NC(=O)Cn2nc(C)c(Br)c2C)o1,10805,.,-16,.,.,.,-2
CC(=O)Nc1ccc(S(=O)(=O)N(C)CC(=O)OC(C)C(=O)N(C)C2CCCCC2)cc1 (stereo unspecified),4441,.,-19,.,.,.,-1
CCN1CCN(CCOc2ccc(Cl)cc2)CC1,2042,6.3,-18,1,-1,19,-4
CCOc1ccccc1CNc1ccc(O)cc1,3482,1.8,-29,2,-5,0,0
Cc1ccccc1CNC(=O)C(=O)NCC1OCCCN1S(=O)(=O)c1cccs1 (stereo unspecified),4846,2.5,-13,3,0,15,-2
O=C(NCc1ccco1)C1CCN(S(=O)(=O)c2ccccc2C(F)(F)F)CC1,3817,2.4,-7,7,8,5,.
CCC(=O)N(Cc1ccco1)Cc1cc2cccc(C)c2n2nnnc12,3195,2.9,-8,10,3,-2,2
Cc1ccc2nc3c(nc2c1C)CCCC3,3931,7.2,-16,18,6,9,-2
CCN(C(=O)c1cc(Cl)ccc1OC)c1ccccc1,10241,5.8,-23,4,12,1,6
COc1ccc(N(C(=O)CNC(=O)c2ccco2)C(C(=O)NCC2CCCO2)c2ccccc2)cc1OC (stereo unspecified),4340,-0.8,-10,-1,-3,7,2
O=C1CC(N2CCN(C/C=C/c3ccccc3)CC2)C(=O)N1Cc1cccs1 (stereo unspecified),4300,3.9,-2,.,.,5,1
COC(=O)c1ccc(OCc2cc(=O)n3ccsc3n2)cc1,2129,2.9,-14,0,5,1,-2
O=C(c1ccco1)N1CCN(c2nc(-c3ccc(F)cc3)cs2)CC1,3562,18,-23,6,-1,7,2
COc1ccc(-n2nc(C)c3onc(C)c3c2=O)cc1,6276,5.9,.,14,7,7,-15
O=S(=O)(c1cccc(F)c1)N1CCN(c2ncnc3scc(-c4ccc(F)cc4)c23)CC1,?,97*,-21,-4,-9,99*,-4
CCOc1ccc(N(CC(=O)Nc2cccc(OC)c2)S(=O)(=O)c2c(C)noc2C)cc1,5961,12,-31,.,.,-11,3
COc1ccc(Oc2nnc(-c3ccccc3)cc2C#N)cc1,2330,6.1,11,.,.,8,14
COc1cccc(CNC(=O)COC(=O)c2cc(Br)c(Br)s2)c1,8600,-0.5,3,-11,3,-5,.
Cn1cccc1C=NNC(=O)C1COc2ccc(C(C)(C)C)cc2O1 (stereo unspecified),.,8.9,.,7,-3,1,.

# (cont.)
SMILES,Bead autofluor,RN4220 kill,PrP 5UTR inh,Mtb hypoxia inh,Mtb hypoxia inh growth,Sa ugtP lethal,BJeLR viability
O=C(CNC(=O)c1ccccc1)NN=Cc1cn[nH]c1-c1ccccc1,.,0.1,.,-9,2,3,.
COC(=O)[C@H](CCSC)NC(=O)c1cc2c(cn1)[nH]c1ccccc12,3383,8.1,-6,1,12,9,-1
CCn1c2ccccc2c2cc(NC(=O)CN(C)CC(=O)Nc3ccc(N4CCOCC4)cc3)ccc21,4613,2.4,-21,13,6,6,1
CC(C)(C)c1ccccc1OCC(=O)Nc1ccccc1C(=O)NCc1cccnc1,4444,7.0,-7,1,9,-13,3
CCN1CCC(Nc2ccnc3cc(Cl)ccc23)CC1,3148,7.7,3,-2,2,13,9
COc1ccc(OCC(=O)Nc2ccc(C(=O)Nc3ccccc3C(=O)O)cc2)cc1,5981,2.7,-8,-7,0,-3,5
CC1=NNC(=O)C1Cc1ccccc1C (stereo unspecified),3102,0.9,5,10,0,2,-4
CCCC(=O)N(CCN1CCOCC1)c1nc2cc(C)c(C)cc2s1,6416,4.1,-45,4,-1,5,2
CCOC(=O)c1cnn(-c2nc(OCC)cc(OCC)n2)c1C,6888,4.1,14,1,4,10,4
CC(=O)N/N=C/c1c(C)[nH]n(-c2ccccc2)c1=O,2633,.,-19,.,.,.,-2
O=C(C1COc2ccccc2O1)N1CCN(S(=O)(=O)c2cc(F)ccc2F)CC1 (stereo unspecified),6263,3.9,-15,5,5,10,.
O=S(=O)(NCc1cn2ccccc2n1)c1cc(F)ccc1F,2493,0.0,-7,7,13,11,-2
COCCCn1c(C(=O)N2CC(C)OC(C)C2)cc2c(=O)n3ccccc3nc21 (stereo unspecified),4644,1.5,-5,3,10,7,0
Cc1ccc(C(=O)O)cc1NC(=S)NC(=O)Cc1ccccc1,2373,3.8,-16,.,.,10,21
c1cncc(CSc2nnc3ccc(-c4ccco4)nn23)c1,4629,7.0,10,3,10,6,5
Cc1ccc(OC(=O)c2ccc3snnc3c2)cc1,7928,13,-28,6,2,5,3
